RE007 growth inh: less growth of the S. pombe RE007 Vpr strain; Potency, µM (highest dose often 92.2 µM), inactives show top-dose activity change, negative = less growth; AID 651644; 0.21% of 360,000 active; S. pombe RE007 Vpr strain, BacTiter-Glo ATP luminescence, 24 h; control for the full effect not named in the record; active = well fitted falling curve with a large enough effect; inconclusive = small, poorly fitted or top-dose-only effect; inactive = no such curve, though single readings can be large or run the other way;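 also: % is scaled to controls: 0 for no effect and ±100 for the full control effect; nearly all actives have a fitted effect of over 50% in size; the assay follows cell death caused by Vpr and the record does not say whether a fall means rescue or toxicity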
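Fission yeast strain RE007, carrying one chromosomally integrated HIV-1 vpr copy, was seeded at OD 0.01 in PMG+AL medium with 23 nL pinned compound. After 24 h at 30 °C and 99% humidity, viability was read by BacTiter-Glo luminescence.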
SARS PLP yeast: blocks SARS-CoV papain-like protease in a yeast assay | S. cerevisiae expressing SARS-CoV PLpro, growth rescue; control for the full effect not named in the record | Potency, µM (titrated, usually from 32.9 µM), for the others: at the highest dose activity, positive = growth rescue | 0.19% of 330,000 active | AID 485353; active means well fitted rising curve with a large enough effect; inconclusive means small, poorly fitted or top-dose-only effect; inactive means no such curve, though single readings can be large or run the other way; also: 0% is about no effect; nearly all actives have a fitted effect of over 55% in size; growth read by luminescence after 48 h
Cruzain noTriton: blocks cruzain activity in detergent-free assay; purified cruzain, Z-FR-AMC fluorescence, no detergent; Potency, µM, for the others: max response, negative = inhibition, most hits filed as inhibitors; 2.3% of 200,000 active; AID 1476;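 also: plate controls were enzyme without inhibitor for no effect and buffer without enzyme for full effect; nearly all actives have a fitted effect of over 40% in size; top concentration of the series not given in the record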
Target sequence (P25779 123-467 limits assumed): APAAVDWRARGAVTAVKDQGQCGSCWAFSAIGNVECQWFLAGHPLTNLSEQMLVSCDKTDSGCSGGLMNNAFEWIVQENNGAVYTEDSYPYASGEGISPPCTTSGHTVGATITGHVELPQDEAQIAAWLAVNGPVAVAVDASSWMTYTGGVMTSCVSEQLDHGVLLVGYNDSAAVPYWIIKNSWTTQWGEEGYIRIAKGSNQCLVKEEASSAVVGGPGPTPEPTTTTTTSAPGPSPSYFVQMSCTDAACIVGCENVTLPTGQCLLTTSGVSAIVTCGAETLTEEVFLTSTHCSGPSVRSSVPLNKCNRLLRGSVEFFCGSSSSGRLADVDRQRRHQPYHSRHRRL
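Purified cruzain at 1.5 nM, pre-incubated 15 min with compound at room temperature in 100 mM sodium acetate pH 5.5, 5 mM DTT, 0.00005% Triton X-100. Reaction started with 2 uM Z-FR-AMC; AMC fluorescence increase over 60 s gives rate.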
LASV entry inh: inhibitors of Lassa virus binding or cell entry; Lassa virus pseudotype entry inhibition, cell reporter; control for the full effect not named in the record; Potency, µM (highest dose often 37.9 µM), for the others: at the top dose activity change, negative = inhibition, actives largely listed as inhibitors; 1.2% of 300,000 active; active means well fitted inhibition curve with a large enough effect; inconclusive means small, poorly fitted or top-dose-only effect, or effect the other way; inactive means flat fitted curve, though single readings scatter; tested in HEK293 cells; also: % is scaled to controls: 0 for no effect and ±100 for the full control effect; nearly all actives have a fitted effect of over 50% in size; luciferase read-out
MARV entry inh: Marburg virus entry inhibition; Marburg virus pseudotyped entry inhibition, cell reporter; control for the full effect not named in the record; about a third of the inactives were read at about 46 µM; Potency, µM (top dose mostly 37.8 µM), without a hit: top-dose activity change, negative = inhibition, most hits filed as inhibitors; 1.8% of 300,000 active; active = well fitted inhibition curve with a large enough effect; inconclusive = small, poorly fitted or top-dose-only effect, or effect the other way; inactive = flat fitted curve, though single readings scatter; tested in HEK293 cells; about a fifth of its hits are not listed in these tables; also: % is scaled to controls: 0 for no effect and ±100 for the full control effect; luciferase read-out
NS1 function inh: blocks influenza NS1 protein function; Potency, µM (titrated, usually from 46.1 µM), inactives show at the top dose activity, positive = more growth; 0.4% of 270,000 active; S. cerevisiae slowed by influenza A NS1, growth recovery by OD600; active means well fitted rising curve with a large enough effect; inconclusive means small, poorly fitted or top-dose-only effect; inactive means no such curve, though single readings can be large or run the other way; also: nearly all actives have a fitted effect of over 50% in size
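A cell-based growth assay was used: compounds that relieve NS1-induced slow growth of budding yeast raise OD600. Assay medium was yeast nitrogen base with ammonium sulphate and -URA supplement, pH 6.0, with 2% galactose.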
Cruzain Triton: blocks cruzain activity in presence of Triton detergent; Potency, µM, inactives show max response, negative = inhibition, hits mostly inhibitors; AID 1478; purified cruzain, Z-FR-AMC fluorescence, 0.01% Triton; 0.43% of 200,000 active;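 also: plate controls were neutral wells for no effect and buffer without enzyme for full effect; nearly all actives have a fitted effect of over 40% in size; top concentration of the series not given in the record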
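Purified cruzain (1.5 nM final) was preincubated with compounds for 15 min at room temperature in 100 mM sodium acetate pH 5.5, 5 mM DTT, 0.01% Triton X-100. Reaction started with 2 uM Z-FR-AMC; AMC fluorescence change over 60 s gave activity.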
StopGo reporter: FMDV 2A StopGo reporter, luciferase signal. human cells with a luciferase reporter of 2A StopGo recoding; control for the full effect not named in the record. Potency, µM (highest dose often 57.9 µM), for inactives: at the highest dose signal change, negative = less light. 1.2% of 410,000 active; active = well fitted falling curve with a large enough effect; inconclusive = small, poorly fitted or top-dose-only effect; inactive = no such curve, though single readings can be large or run the other way; tested in HEK293T cells; also: % is scaled to controls: 0 for no effect and ±100 for the full control effect; nearly all actives have a fitted effect of over 45% in size; luciferase light after 4 h
Numbers without * were called inactive; u = inconclusive; x = no result given; & = joins results of further samples; [ ] = remark or other dose. Unless noted, calls follow the shape of the dose curve; as a rule, active = well fitted curve in the direction sought with a large enough effect; inconclusive = small, poorly fitted or top-dose-only effect, or another doubt; inactive = no such curve, though single readings can be large; an effect the other way counts as inactive or inconclusive. Potency is read from the fitted curve at half-maximal effect.

Start of the data: the first 8 records, to show the layout:
SMILES	RE007 growth inh	SARS PLP yeast	Cruzain noTriton	LASV entry inh	MARV entry inh	NS1 function inh	Cruzain Triton	StopGo reporter
COCCNC(=O)c1c[nH]c2cc(OC)c(OC)cc2c1=O	5.9%	-2.6%	-5.8%	26.2%	0.5%	2.8%	-3.9%	-0.7%
O=C1NC(c2cccs2)C(C(=O)c2ccccc2)C(O)(C(F)(F)F)N1 (stereo not given)	-7.2%	-2.1%	-2.9%	15.5%	-19.8%	-16.5%	5.0%	x
Cc1c(O)ccc2c(CN3CCOCC3)cc(=O)oc12	4.4%	-8.0%	x	x	x	-2.5%	x	-5.7%
COc1ccccc1CNC(=O)CN1C(=O)NC(c2ccccc2)(c2ccc(C)c(C)c2)C1=O (stereo not given)	-20.1%	1.2%	x	u	u	x	x	u
CCCOc1ccc(/C=C/C(=O)Nc2sc3c(c2C(=O)OCC)CCC(C)C3)cc1OC (stereo not given)	x	x	-3.8%	17.8%[46.1 µM]	x	x	-0.2%	-9.8%
CCOC(=O)C(C)c1n[nH]c(=O)c2ccccc12 (stereo not given)	12.5%	-2.5%	-8.0%	11.7%	8.7%	11.9%	3.2%	-12.7%
CC(C)n1nc(C(=O)NNC(=O)c2ccncc2)c2ccccc2c1=O	-3.6%	1.0%	x	u	-2.8%	x	x	-9.4%
COc1ccc(-n2nc(C(=O)NCC(=O)NCc3ccc(F)cc3)c3ccccc3c2=O)c(OC)c1	-2.1%	2.9%	4.0%	-22.8%	-13.8%	2.7%	6.5%	-16.6%

The list itself, from the start:
SMILES	RE007 growth inh	SARS PLP yeast	Cruzain noTriton	LASV entry inh	MARV entry inh	NS1 function inh	Cruzain Triton	StopGo reporter
COCCNC(=O)c1c[nH]c2cc(OC)c(OC)cc2c1=O	5.9%	-2.6%	-5.8%	26.2%	0.5%	2.8%	-3.9%	-0.7%
O=C1NC(c2cccs2)C(C(=O)c2ccccc2)C(O)(C(F)(F)F)N1 (stereo not given)	-7.2%	-2.1%	-2.9%	15.5%	-19.8%	-16.5%	5.0%	x
Cc1c(O)ccc2c(CN3CCOCC3)cc(=O)oc12	4.4%	-8.0%	x	x	x	-2.5%	x	-5.7%
COc1ccccc1CNC(=O)CN1C(=O)NC(c2ccccc2)(c2ccc(C)c(C)c2)C1=O (stereo not given)	-20.1%	1.2%	x	u	u	x	x	u
CCCOc1ccc(/C=C/C(=O)Nc2sc3c(c2C(=O)OCC)CCC(C)C3)cc1OC (stereo not given)	x	x	-3.8%	17.8%[46.1 µM]	x	x	-0.2%	-9.8%
CCOC(=O)C(C)c1n[nH]c(=O)c2ccccc12 (stereo not given)	12.5%	-2.5%	-8.0%	11.7%	8.7%	11.9%	3.2%	-12.7%
CC(C)n1nc(C(=O)NNC(=O)c2ccncc2)c2ccccc2c1=O	-3.6%	1.0%	x	u	-2.8%	x	x	-9.4%
COc1ccc(-n2nc(C(=O)NCC(=O)NCc3ccc(F)cc3)c3ccccc3c2=O)c(OC)c1	-2.1%	2.9%	4.0%	-22.8%	-13.8%	2.7%	6.5%	-16.6%
Cc1ccc(/C=C2/SC(=O)N(CC(=O)N3CCOCC3)C2=O)s1	0.8%	-9.4%	-11.6%	4.8%	3.1%	11.6%	-8.2%	4.3%
O=C(Nc1ccc2c(c1)OCO2)c1cncc(Br)c1	-10.9%	-10.2%	-6.1%	-1.8%	9.8%&9.8%	-34.9%	1.3%	65.0%[activator]
COc1ccc(S(=O)(=O)NCC(=O)N(CC2CCCO2)C(C(=O)NC2CCCC2)C(C)C)cc1 (stereo not given)	-12.7%	-11.8%	x	-1.0%	-18.9%[46.1 µM]	6.0%	x	8.2%
CCc1noc(C)c1C(=O)NNC(=O)c1cc(OC)c(OC)c(OC)c1	-3.4%	-5.1%	x	-6.7%	8.5%[46.1 µM]	x	x	-4.4%
COc1ccc(Cc2nc3ccc(C(=O)NCCCSC)cc3o2)cc1OC	7.0%	-5.2%	x	x	x	-2.7%	x	22.7%
COc1ccc(C(=O)NCC(=O)OCC(=O)Nc2cc(OC)ccc2OC)cc1	-6.8%	1.8%	-18.1%	9.5%	-3.5%	-3.6%	u	-6.7%
CC(=O)Nc1ccc(Nc2nc(C)nc3c2nnn3Cc2ccccc2Cl)cc1	16.0%	-6.8%	x	6.7%[46.1 µM]	u	-3.8%	x	-6.1%
C=CCn1c(O)c(C(CC)=Nc2ccccc2NC(C)=O)c(=O)[nH]c1=O	-3.0%	1.6%	-5.8%	-13.9%	u	-6.3%	0.7%	5.3%
CC1CC1C(=O)OCC(=O)NCc1ccc(Cl)cc1 (stereo not given)	-2.2%	-14.4%	-1.5%	10.1%	-23.5%	5.7%	2.7%	-5.5%
O=C(CCC(=O)N(CC(=O)NC1CCCCC1)Cc1ccccc1)Nc1ccccn1	3.5%	0.2%	x	-23.0%	u	x	x	-18.5%
CCOC(=O)CC1(NC(=O)c2cc(COc3c(F)cccc3F)on2)CCCCC1	-17.7%	-9.1%	x	x	x	-15.3%	x	-20.7%
CCOc1ccc(NS(=O)(=O)c2ccc(NC(=S)NC(=O)C(C)C)cc2)cc1	-3.8%	-5.4%	-0.6%	u	-20.2%	14.4%	-9.6%	19.7%
O=C(CSc1ccc(-c2cccnc2)nn1)Nc1ccccc1C(F)(F)F	5.0%	-3.3%	x	u	-1.7%	-5.8%	x	0.5%
CC1(C)CC(NC(=O)c2cc([N+](=O)[O-])cc([N+](=O)[O-])c2)CC(C)(C)N1	2.9%	3.8%	x	x	x	u	x	-16.6%
COC(=O)c1cc(-c2ccc(Cl)cc2)n(-c2ccc(S(N)(=O)=O)cc2)n1	5.3%	-2.5%	x	0.5%[46.1 µM]	u	x	x	2.7%
CCc1nccn1S(=O)(=O)c1ccc(C)c(C)c1	9.0%	4.0%	-11.3%	3.7%	5.8%[46.1 µM]	-0.8%	-4.6%	-14.0%
CCOC(=O)/C=C(/C)N1N=C(c2ccc(OC)cc2)CC1c1cccc([N+](=O)[O-])c1 (stereo not given)	-4.4%	-3.8%	-16.9%	2.2%	11.9%	-0.8%	-3.7%	-12.3%
Cn1c(C(=O)O)c(CC(=O)Nc2ccccc2F)c2ccccc21	10.5%	-5.8%	-3.5%	0.2%	u	-8.2%	3.1%	-22.2%
COc1ccc([N+](=O)[O-])cc1NC(=O)c1cc(C)c(C)o1	13.9%	0.9%	x	x	x	-3.1%	x	-0.6%
CC(C(=O)Nc1nc2ccccc2s1)n1cc([N+](=O)[O-])cn1 (stereo not given)	-14.1%	4.5%	x	x	1.6%[46.1 µM]	x	x	-22.9%
CSc1cc(/C=N/O)c(SC)s1	-18.8%	-22.3%	7.2%	-16.2%	u	-1.0%	-1.6%	-25.5%
Cc1cccc(C)c1NC(=O)CN(C)C(=O)C(c1ccccc1)c1ccccc1	12.1%	-1.1%	-0.6%	-5.9%	5.3%[46.1 µM]	-14.0%	-1.1%	-15.0%
Brc1ccc(CNc2cc3c(cc2Br)OCCO3)cc1	-16.0%	-16.5%	x	-8.2%	-19.1%[46.1 µM]	x	x	17.3%
COc1ccc2c(C)nc(Nc3nc(C)cc(C)n3)nc2c1	3.2%	10.2%	-3.1%	5.3%	-8.0%	8.1%	-3.0%	3.2%
C/C(=N\NC(=O)c1c(Cl)c(C)nn1C)c1cccc(NC(=O)COc2ccc(Cl)cc2)c1	-9.3%	-0.9%	8.7%	u	11.8%[46.1 µM]	-6.7%	-5.1%	-26.6%
Cc1cc2c(cc1C)NC(=O)CC(c1ccccc1)=N2	-4.9%	x	x	0.2%[46.1 µM]	-7.2%	x	x	37.8%[activator]
O=C(c1ccco1)N1CCN(C(=O)c2ccccc2Oc2ccccc2)CC1	0.0%	-17.3%	5.3%	u	-3.7%	-10.8%	-4.2%	x
O=C(NC(=O)c1csnn1)Nc1ccccc1Cl	-7.0%	-8.3%	x	x	x	-11.4%	x	22.2%
COc1ccccc1-c1ocnc1C(=O)N1CCN(S(=O)(=O)c2ccc(NC(C)=O)cc2)CC1	-5.7%	-3.5%	x	4.7%	-7.0%[46.1 µM]	-8.0%	x	-10.0%
CS(=O)(=O)N(CCc1ccccc1)CC(=O)NCc1cccnc1	0.7%	1.1%	-5.3%	14.2%	-22.1%	0.3%	1.4%	-14.1%
COC(=O)c1ccccc1NC(=O)C(=O)NCc1ccncc1	9.0%	0.3%	x	1.4%	-0.6%[46.1 µM]	0.1%	x	-13.5%
COc1ccc(-c2cc(Cl)cc3c(=O)c4ccccc4n(C)c23)cc1F	-5.0%	2.9%	x	x	x	2.1%	x	-16.8%
CCOC(=O)c1cc(OC(=O)c2cccs2)n(-c2ccccc2)n1	-1.8%	10.9%	0.8%	-18.5%[14.3 µM]	15.9%	-38.5%	4.8%	-2.1%
CS(=O)(=O)N1CCC2(CC1)OCCN2S(=O)(=O)c1ccccc1	-10.6%	3.7%	x	-26.3%	16.8%	x	x	-17.4%
CC1=C(C(=O)Nc2ccc(C)cc2)C(c2ccccc2Cl)n2nnnc2N1 (stereo not given)	x	x	-5.4%	u	x	x	-0.3%	-17.9%
COc1ccc(CCNCCC(=O)Nc2c(C)cc(C)cc2C)cc1OC	2.5%	-7.6%	0.9%	-3.0%	-24.5%	-0.9%	-1.4%	-19.7%
COc1ccc(Cl)cc1-n1c(CCC(=O)O)ccc1-c1ccc(C)cc1	x	x	u	-19.5%[46.1 µM]	-16.8%[46.1 µM]	x	-15.2%	-13.1%
CCOC(=O)c1ccccc1NC(=O)CC1Nc2ccccc2NC1=O (stereo not given)	x	0.7%	7.7%	x	-0.2%	-0.7%	-0.5%	x
COc1ccc(CN(C)CC(=O)NC(C)c2ccccc2)cc1OC (stereo not given)	6.7%	3.1%	x	-10.0%	1.9%[46.1 µM]	x	x	-18.2%
CCN(CC)C(=O)CSc1nc2ccc(NC(=O)CSc3nccn3C)cc2s1	5.0%	-7.7%	-1.2%	-1.4%	u	u	-10.6%	x
